VDR inhibitor: vitamin D3 receptor (human) inhibition; 400,000 compounds, 0.93% hits; Potency, µM, for inactives: max response, negative = inhibition, usual class: inhibitors; P11473; VDR-SRC2-3 peptide fluorescence polarization, 2 h; AID 504847; active = well fitted inhibition curve with a large enough effect; inconclusive = small, poorly fitted or top-dose-only effect, or another doubt; inactive = no such curve, though single readings can be large or run the other way; note: series mostly up to about 120 µM
Target sequence (P11473 whole entry, looked up): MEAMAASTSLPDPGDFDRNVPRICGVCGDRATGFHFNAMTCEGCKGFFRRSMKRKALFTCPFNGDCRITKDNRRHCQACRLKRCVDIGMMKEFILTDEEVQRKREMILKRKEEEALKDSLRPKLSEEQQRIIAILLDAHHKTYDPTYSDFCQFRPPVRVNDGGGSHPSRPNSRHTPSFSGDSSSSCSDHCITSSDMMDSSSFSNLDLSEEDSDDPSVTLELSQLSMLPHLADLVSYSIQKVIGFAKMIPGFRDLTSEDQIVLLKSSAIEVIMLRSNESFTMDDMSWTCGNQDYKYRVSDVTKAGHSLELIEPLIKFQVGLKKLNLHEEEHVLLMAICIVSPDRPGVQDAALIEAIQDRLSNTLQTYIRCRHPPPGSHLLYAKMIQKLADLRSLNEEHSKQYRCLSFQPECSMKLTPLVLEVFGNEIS
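Signal is fluorescence polarization, reporting how far test compounds block the interaction of VDR with the SRC2-3 coregulator peptide after a 2 h room-temperature incubation.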
* = called active by the depositor; u = inconclusive; & = joins results of further samples. % is set by controls: 0 for no effect and ±100 for the full control effect; potency is the fitted concentration of half-maximal effect. This is a subset; count on the stated rates, not on these rows.

SMILES	VDR inhibitor
CCN(CC)S(=O)(=O)c1ccc(N2C(=O)CC2(/C=C/c2ccccc2)C(=O)NC2CCCC2)cc1 (stereo unspecified)	-5%
Cc1nc2nc(-c3ccc(Cl)cc3)[nH]n2c(=O)c1Cc1ccccc1	5%
O=C(CSc1ccccc1)Nc1ccccc1C(=O)N1CCCC1	-7%
COC(=O)c1cc(S(=O)(=O)N2CCN(c3ccc(C)cc3C)CC2)cn1C	3%
CCn1c(SCC(=O)NCc2ccco2)nc2c1c(=O)n(C)c(=O)n2C	-1%
COc1ccc(CC(=O)NCc2nc3cccnc3n2Cc2ccc(C)cc2)cc1OC	2%
CCOc1cc(C2C(C(=O)c3ccc(C)o3)=C(O)C(=O)N2CCc2ccccc2)ccc1O (stereo unspecified)	-6%
Cn1c(=O)c(C(=O)COc2ccc(F)cc2Cl)c(N)n(Cc2ccccc2)c1=O	-1%
CC(C)Cc1nn2c(=O)cc(COC(=O)c3ccc4c(c3)OCO4)nc2s1	11%
COCCCNC(=O)Cn1c(=O)n(CCCC(=O)NCc2ccc(C)cc2)c(=O)c2ccccc21	-2%
O=C(Cn1ccc2ccccc2c1=O)NCCC(=O)N1CCN(C(=O)c2ccco2)CC1	-10%
Cc1cccc(N2CCN(C(=O)CCNS(=O)(=O)c3ccc4c(c3)oc(=O)n4C)CC2C)c1 (stereo unspecified)	22%
CC1(C)CC(NC(=O)c2ccc(Cl)c(S(=O)(=O)N(Cc3ccccc3)c3ccccc3)c2)CC(C)(C)N1	4%
CC(C)C(=O)Nc1cc(S(=O)(=O)Nc2ccc(Cl)cc2)ccc1Cl	10%
CN(C(=O)COC(=O)c1ccccc1SCC(=O)N1CCCC1)c1ccccc1	-8%
Cc1cc(C(=O)NC2CC2)c2ccccc2n1	16%
CCn1c(=O)n(CC)c2cc(S(=O)(=O)N3CCCCC3)c(C)cc21	11%
COc1ccccc1Nc1nn2c(=O)c3ccc(C(=O)N4CCC(C)CC4)cc3nc2s1	15%&4%
CC(=O)NN1C(=O)c2ccccc2NC1c1ccccc1O (stereo unspecified)	24%
CCCC(=O)C1CCN(Cc2ccccc2)CC1	17%
O=C(CCNC(=O)c1ccccc1Cl)Nc1cc(S(=O)(=O)N2CCOCC2)ccc1N1CCOCC1	-1%
Cc1ccc(Nc2ncnc3c2nnn3Cc2ccccc2)cc1	-5%
CC(C)c1ccc(NC(=O)c2cn(C3CCCCC3)c(=O)c3c2c2ccccc2n3C)cc1	12%
CCOC1CCc2c(C)nc(N)nc2S1 (stereo unspecified)	1%
NC(=O)c1ccccc1NS(=O)(=O)Cc1ccc(Cl)cc1	14%

The closing 2 records of the section above come first, to join the parts.
SMILES	VDR inhibitor
CCOC1CCc2c(C)nc(N)nc2S1 (stereo unspecified)	1%
NC(=O)c1ccccc1NS(=O)(=O)Cc1ccc(Cl)cc1	14%
Cc1cccc(OCC(O)Cn2c(=N)n(Cc3ccccc3)c3ccccc32)c1 (stereo unspecified)	-25%
CCC1CCCCN1S(=O)(=O)c1ccc2c(c1)CCN2C(=O)C1CCC1 (stereo unspecified)	-10%
COc1cccc(NC(=O)c2ccc(NC(C)=O)cc2)c1	4%
CC(CCc1ccccc1)NC(=O)CNC(=O)c1ccccc1Br (stereo unspecified)	-6%
CCOc1ccc(CN(C(=O)/C=C/c2ccco2)C2CCS(=O)(=O)C2)cc1 (stereo unspecified)	u
O=C(c1ccco1)N1CCCC(c2nc3c(nnn3Cc3ccc(F)cc3)c(=O)[nH]2)C1 (stereo unspecified)	-6%
COc1ccc(C2OC(=O)CC2C(=O)NCc2ccc(F)cc2)cc1OC (stereo unspecified)	-20%
OCc1c(OCc2cccc(F)c2)ccc2ccccc12	-1%
COc1cc(C(=O)OCCn2c(=O)c3c(ncn3CCN(C)C)n(C)c2=O)cc(OC)c1OC	-1%
CCCNC(=O)C(Cc1ccccc1)NC(=O)c1ccc(C(C)(C)C)cc1 (stereo unspecified)	-1%
Cc1ccc(-n2[nH]c(C)c(C=Nc3cc(C)ccn3)c2=O)cc1	0%
C#CCOCCOCCOCCNc1nc(N2CCN(C(=O)Cn3cc(CCCN=C(N)N)nn3)CC2)nc(N2CCN(C(=O)[C@H](CCCCN)n3cc(CCC(=O)O)nn3)CC2)n1	-5%
CN(C)C(=O)N1CCN(C(=O)c2ccco2)CC1	-4%
O=C(Nc1nc2ccccc2s1)c1cccc(N2C(=O)CCC2=O)c1	-22%
Cn1c(O)c(N=NC(=O)C2COc3ccccc3O2)c2ccccc21 (stereo unspecified)	-21%
O=C(CCc1nc2ccccc2[nH]1)Nc1ccc2c(c1)OCCO2	7%
O=C(Nc1cc(S(=O)(=O)N2CCOCC2)ccc1O)c1ccc2c(c1)S(=O)(=O)c1ccccc1C2=O	u
Fc1ccc(-c2ccnn2-c2ccccc2)cc1	4%
C=CCNC(=O)CN1CCC(n2nnc3cc(C(F)(F)F)ccc32)CC1	0%
CCn1cc(CNC(=O)c2cc([N+](=O)[O-])c(C)c([N+](=O)[O-])c2)cn1	-7%
O=C(CN1C(=O)N/C(=C\c2ccccc2OCc2ccc(C(=O)O)cc2)C1=O)Nc1ccc(F)cc1	8%
CC(=O)OCCCCCCCCCCC[N+]1(C)CCCCC1	3%
O=C(Nc1ccc(SC(F)F)cc1)c1ccc2nccnc2c1	-24%
COc1ccc2c(CC(=O)N3CCN(S(=O)(=O)c4ccc(F)cc4)CC3)coc2c1	-10%
Cc1cc(C)n2nc(CNS(=O)(=O)c3cccc(Cl)c3)nc2n1	5%

(list continues)
SMILES	VDR inhibitor
Cc1ccc(CNC(=O)C2CCN(S(=O)(=O)c3ccc4nc5c(c(C(=O)O)c4c3)CC(C)CC5)CC2)cc1 (stereo unspecified)	2%&12%
Cc1cccc(N(C(=O)c2snc(C(N)=O)c2N)C(C(=O)NCc2ccccc2)c2ccncc2)c1 (stereo unspecified)	-11%
CCOc1ccc(CCNC(=O)CN(C)S(=O)(=O)c2cccc3nsnc23)cc1OCC	-7%
NS(=O)(=O)c1cccc(NC(=S)NCc2ccccc2)c1	1%
COc1ccc(NC(=O)CSc2ccc(-c3ccco3)nn2)cc1OC	-11%
Cc1nc2c(cc1N)nc(C)n2Cc1ccccc1	-27%
CC[C@@]1(O)C(=O)OCc2c1cc1n(c2=O)Cc2cc3cc(O)ccc3nc2-1	0%&1%
CCOc1ccc(S(=O)(=O)N2CCN(Cc3nc4ccc(C)cc4o3)CC2)cc1	5%
CCn1cc(CNCc2c(C(=O)N3CCCCC3)nc3c(C)cccn23)cn1	-1%
CCn1cc(C(=O)NCC(=O)OC)c2cc(OC)c(OC)cc2c1=O	2%
CN(C)[C@@H]1CCC[C@@H]1OC(=O)C(c1ccccc1)c1ccccc1	16%
CCCCC1CC1C(=O)Nc1ncc2c(n1)CC(C)(C)CC2=O (stereo unspecified)	-1%
Cc1ccccc1OCC(O)Cn1c(SC(C)C)nc2c1c(=O)[nH]c(=O)n2C (stereo unspecified)	u
O=C(Cc1cccs1)Nc1ccccc1F	4%
O=c1cc(CN2CCCCC2)nc(C2CC2)[nH]1	17%
COCCOC(=O)c1c(C)oc2ccc(O)c(CN3CCC(C)CC3)c12	-21%
COc1ccc(CCNC(=O)[C@H](CC(C)C)NC(=O)N2CCn3c2nc2ccccc23)cc1OC	-2%
O=C(CCNC(=O)c1ccc(Br)cc1)NCc1ccccc1F	-1%
Cc1ccc(C(=O)CC2(O)C(=O)N(Cc3ccccc3F)c3ccccc32)cc1 (stereo unspecified)	-6%
Cc1nc(C)c(-c2ccc(SCc3ccccc3F)nn2)s1	-12%
CCOC(=O)c1nc(C(=O)NCc2ccc(C)cc2)nc2ccccc12	-8%
Fc1ccc(C2NCCn3cccc32)cc1 (stereo unspecified)	2%
CCN(Cc1ccc(OC)c(F)c1)C(=O)c1oc2ccccc2c1COC	9%
Cc1noc(C)c1CSCC(=O)OCC(=O)Nc1sccc1C#N	-8%
Cc1nnc(CN(C)C(=O)c2cc(COc3ccc(F)cc3Cl)on2)o1	-6%

Carrying on:
SMILES	VDR inhibitor
Cc1cc(NC(=O)CCC(=O)N(CC(=O)NCC2CCCO2)c2ccc(C(C)C)cc2)no1 (stereo unspecified)	-11%
CC1(OC(=O)C2CCCC2)C(=O)C=C2C=C(c3ccsc3)N(c3ccccc3)C=C2C1=O (stereo unspecified)	-4%
O=C(CS(=O)(=O)c1ccccc1)c1ccc2c(c1)OCCO2	0%
Cc1cccc(NS(=O)(=O)c2nnc(NC(=O)c3ccccc3F)s2)c1	-30%
CCc1noc(C)c1C(=O)NCCN1C(=O)S/C(=C\c2ccc(OC)cc2)C1=O	-11%
CCc1ccc(-n2c(=O)c3c4c(sc3n(CC(=O)N3CCCCC3CC)c2=O)CCC4)cc1 (stereo unspecified)	-7%
CCCCN=C1NN=C(c2cc3ccccc3o2)CS1	-20%
CC(OC(=O)CNC(=O)c1ccc(Br)cc1)C(=O)NC1CCCCC1C (stereo unspecified)	-1%
COc1cc(OC)cc(-c2c(C#Cc3ccsc3)c3cc(-c4ccc(OC)nc4)ccc3n2C)c1	2%
O=C(Nc1ccccc1C(F)(F)F)c1cc(-c2ccco2)on1	-3%
CC(C)CCN1CCC(CN2C(=S)NC[C@@H]2Cc2ccccc2)CC1	1%
CCN1CCN(S(=O)(=O)c2ccc(Cl)c(C(=O)NC3CCCCC3)c2)CC1	-9%
O=C1c2ccccc2NC(c2cccc(O)c2)N1O (stereo unspecified)	5%
COc1ccc(-c2nc(Cn3c(SCc4cccc(F)c4)nc4ccncc43)c(C)o2)cc1OC	-30%
Cc1ccc(-c2nc(C#N)c(NCc3ccco3)o2)cc1	-5%
CN(C)CCCNc1oc(-c2ccc(Cl)cc2)nc1S(=O)(=O)c1ccccc1	2%
O=C(Nc1ccc(Cl)cc1)Nc1nc(-c2ccccc2O)cs1	-4%
CCN(CC)c1nc(C)c(C(=S)Nc2cc([N+](=O)[O-])ccc2Cl)s1	-2%
CCC(c1nnnn1Cc1ccc(F)cc1)N1CCN(C2CCCCC2)CC1 (stereo unspecified)	0%
Cc1cnc(CNc2ncncc2-c2cccnc2)cn1	-7%
COc1ccc(Cl)cc1N(C(=O)c1ccco1)C(C(=O)NC1CCCC1)c1ccco1 (stereo unspecified)	7%
O=C(NCCN1CCOCC1)/C(=C\c1ccc(Br)cc1)NC(=O)c1cccs1	-7%
S=C(NCCc1c[nH]c2ccccc12)NC1CCCC1	2%
CNC(=O)c1cccc(NC(=O)c2cc(-c3ccccc3)nc3c2cnn3C(C)C)c1	11%
CS(=O)(=O)c1ccccc1C(=O)Nc1cc(Cl)ccc1-n1cncn1	-3%

Next entries.
SMILES	VDR inhibitor
c1cn2cc(CSC3CCCCC3)nc2s1	4%
O=C1c2cnc3nc(SCc4cccc(Cl)c4)nn3c2CC2c3ccccc3CCN12 (stereo unspecified)	-1%
S=C1NC[C@H](Cc2ccccc2)N1CCc1cccc2ccccc12	-1%
CC(C)c1ccc(C2Sc3ccccc3NC3=C2C(=O)c2ccccc23)cc1 (stereo unspecified)	-9%
Cc1ccc(S(=O)(=O)N2CCN(C(=O)COC(=O)CSc3ccc(C)c(C)c3)CC2)c(C)c1	-2%
O=C(CN1C(=O)c2ccccc2C1=O)Nc1cccc(Cl)c1	-14%
Cc1n[nH]c(=S)n1Cc1ccccc1	-5%
Cc1ccc([N+](=O)[O-])cc1S(=O)(=O)N1CCCN(C)CC1	9%
O=C(O)c1ccc(C(=O)c2cc([N+](=O)[O-])cc([N+](=O)[O-])c2)cc1	-8%
CCN(c1ccccc1)S(=O)(=O)c1ccc(Cl)c(NC(=O)COC(=O)c2cccc(OC)c2O)c1	16%
Cc1nc(NS(=O)(=O)c2ccccc2)sc1C(=O)NNS(=O)(=O)c1ccccc1	2%
O=C1c2ccccc2C(=O)C1c1ccc2ccccc2n1	11%&-11%
O=[N+]([O-])c1ccc(S(=O)(=O)Nc2nnc(C3CCCCC3)s2)cc1	-7%
COc1ccc(OC)cc1	0%
O=C(Nc1cc(S(=O)(=O)N2CCOCC2)ccc1N1CCOCC1)c1cc2c(s1)CCC2	0%
COc1ccc(N(C(C)C(=O)N/N=C/c2cc(Br)c(C)o2)S(C)(=O)=O)cc1 (stereo unspecified)	-2%

Among those listed so far, these have a Cl atom.
SMILES	VDR inhibitor
Cc1nc2nc(-c3ccc(Cl)cc3)[nH]n2c(=O)c1Cc1ccccc1	5%
Cn1c(=O)c(C(=O)COc2ccc(F)cc2Cl)c(N)n(Cc2ccccc2)c1=O	-1%
CC1(C)CC(NC(=O)c2ccc(Cl)c(S(=O)(=O)N(Cc3ccccc3)c3ccccc3)c2)CC(C)(C)N1	4%
CC(C)C(=O)Nc1cc(S(=O)(=O)Nc2ccc(Cl)cc2)ccc1Cl	10%
O=C(CCNC(=O)c1ccccc1Cl)Nc1cc(S(=O)(=O)N2CCOCC2)ccc1N1CCOCC1	-1%
NC(=O)c1ccccc1NS(=O)(=O)Cc1ccc(Cl)cc1	14%
Cc1cc(C)n2nc(CNS(=O)(=O)c3cccc(Cl)c3)nc2n1	5%
Cc1nnc(CN(C)C(=O)c2cc(COc3ccc(F)cc3Cl)on2)o1	-6%
CCN1CCN(S(=O)(=O)c2ccc(Cl)c(C(=O)NC3CCCCC3)c2)CC1	-9%
CN(C)CCCNc1oc(-c2ccc(Cl)cc2)nc1S(=O)(=O)c1ccccc1	2%
O=C(Nc1ccc(Cl)cc1)Nc1nc(-c2ccccc2O)cs1	-4%
CCN(CC)c1nc(C)c(C(=S)Nc2cc([N+](=O)[O-])ccc2Cl)s1	-2%
COc1ccc(Cl)cc1N(C(=O)c1ccco1)C(C(=O)NC1CCCC1)c1ccco1 (stereo unspecified)	7%
CS(=O)(=O)c1ccccc1C(=O)Nc1cc(Cl)ccc1-n1cncn1	-3%
O=C1c2cnc3nc(SCc4cccc(Cl)c4)nn3c2CC2c3ccccc3CCN12 (stereo unspecified)	-1%
O=C(CN1C(=O)c2ccccc2C1=O)Nc1cccc(Cl)c1	-14%
CCN(c1ccccc1)S(=O)(=O)c1ccc(Cl)c(NC(=O)COC(=O)c2cccc(OC)c2O)c1	16%

High-throughput results (PubChem)
